Screening results (PubChem)
GIV-Gai inh – GIV-Galpha-i interaction inhibition; Galpha-i3/FITC-GIV peptide fluorescence polarization, 90 min; hits give low values; scaled: aluminum fluoride 0%, vehicle 100%; percent of control (FP), % (concentration not given with the values); actives 0.42% (n = 210,000); AID 1224905;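 active means replicate mean at 85% of control or lower, very high polarization wells dropped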;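 further: wells of about 15 µL received 100 nL stock; the first replicate is given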
Target sequence (P08753 whole entry, looked up): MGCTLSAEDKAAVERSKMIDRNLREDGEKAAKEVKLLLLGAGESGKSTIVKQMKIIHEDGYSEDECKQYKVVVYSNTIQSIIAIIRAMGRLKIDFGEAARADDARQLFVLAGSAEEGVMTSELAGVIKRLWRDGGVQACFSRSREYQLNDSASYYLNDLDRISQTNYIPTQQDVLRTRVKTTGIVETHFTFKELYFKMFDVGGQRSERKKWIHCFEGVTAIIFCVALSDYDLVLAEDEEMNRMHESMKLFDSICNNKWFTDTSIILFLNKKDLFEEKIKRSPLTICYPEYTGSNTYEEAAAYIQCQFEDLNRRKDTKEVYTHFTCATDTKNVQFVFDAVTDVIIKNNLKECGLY
HCMV UL50-53 inh – inhibitors of HCMV UL50-UL53 nuclear egress complex interaction; HTRF UL50-UL53 interaction, normalized percent inhibition; inhibition, % (no concentration beside the values); actives 0.15% (n = 190,000);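 active means both replicates at 50% or more, plus weaker picks with an unusually low signal ratio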;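 further: stock transfer was 100 nL into about 20 µL; 0% = negative control wells and 100% = wells with untagged competitor protein; inactives centre near -12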
Sa growth inh – S. aureus growth inhibition | S. aureus RN4220 growth, OD600, 20 h, 42 °C; hits give low values | relative growth, % (concentration not given with the values) | actives 0.53% (n = 170,000);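 active means growth at 42 °C up to 50% and 20 or more points under that at 30 °C, or under 10% at both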;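 further: 300 nL library stock went into each well; scaled to the means of positive and negative controls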
Sa growth inh second temp – also measured in Sa growth inh; calls as there; relative growth, %; measured here: growth at 30 °C;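 optical density after 20 h as mean of two plates; 100% = untreated growth and lower means inhibition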
* marks the source's active call; other numbers are inactive results; · = not tested or not shown; & = joins results of further samples.

Preview (4 entries):
SMILES	Sa growth inh	HCMV UL50-53 inh	GIV-Gai inh	Sa growth inh second temp
N#Cc1c(NC(=O)CN2CCOCC2)sc2c1CCCC2	·	-23	105	·
O=C1C2CC=CCC2C(=O)N1CN(Cc1ccccc1)Cc1ccccc1 (stereo unspecified)	90	-31	·	90
Cc1ccc(NC(=S)N2CCC(N(C)CCN3CCOCC3)CC2)cc1C	91	·	109	87
CC(NC(=O)C1CC1)c1ccncc1 (stereo unspecified)	96	14	110	102

The list itself (from the top)
SMILES	Sa growth inh	HCMV UL50-53 inh	GIV-Gai inh	Sa growth inh second temp
N#Cc1c(NC(=O)CN2CCOCC2)sc2c1CCCC2	·	-23	105	·
O=C1C2CC=CCC2C(=O)N1CN(Cc1ccccc1)Cc1ccccc1 (stereo unspecified)	90	-31	·	90
Cc1ccc(NC(=S)N2CCC(N(C)CCN3CCOCC3)CC2)cc1C	91	·	109	87
CC(NC(=O)C1CC1)c1ccncc1 (stereo unspecified)	96	14	110	102
CCOC(=O)c1c(C)oc2c1cc(NS(=O)(=O)c1ccc(C)cc1)c1ccccc12	110	-29	112	93
CC1(C)CC(=O)C2=C(C1)OC(N)=C(C#N)C21CCCCC1	98	3	97	74
O=C(O)c1ccsc1	93	-27	·	99
CCOc1ccc(Nc2cnnc(Nc3ccc(OCC)cc3)n2)cc1	88	·	98	92
CCSc1nsc(SCC)c1C(N)=O	120	-9	·	82
CS(=O)(=O)Nc1ccc(C2=NN(C(=O)CCCC(=O)O)C(c3ccccc3)C2)cc1 (stereo unspecified)	·	-27	105	·
Cc1ccc(C(=O)Nc2ccc3ccccc3n2)cc1	67	-9	97	72
O=C(N/N=C/C=C/c1ccccc1)NC1CCCCC1	100	-17	·	93
Cc1cccc(CSc2nc3cccnc3n2Cc2cccc(F)c2)c1	·	-13	102	·
CCOC(=O)CSc1nc(-c2ccccc2)nc2c1oc1ccccc12	94	-3	105	77
Cc1cccc(Cn2c(SCc3ccc(C(=O)N4CCCCCC4)cc3)nc3ccncc32)c1	84	8	107	52
COc1ccccc1C(=O)Nc1ccc(N2CCCCC2)cc1	98	-4	106	90
NC(=S)N/N=C/c1cn(-c2ccccc2)nc1-c1cccnc1	110	-6	·	89
COc1cccc2cc(-c3cn(-c4ccc(F)c(F)c4)c(=S)[nH]3)c(=O)oc12	114	·	102	78
CCN1C(=O)c2cc(C(=O)N3CCCCC3)nn2CC1(C)C(=O)NC1CCCC1 (stereo unspecified)	·	-6	102	·
Cc1nc2nc(SCC(=O)NC3CC3)nn2c(C)c1Cc1ccccc1	102	0	106	89
CC(CC(=O)O)CC1=NS(=O)(=O)c2ccccc2N1 (stereo unspecified)	89	·	99	92
CC1CCN(CCNS(=O)(=O)c2ccc3c(c2)CCCC(=O)N3)CC1	87	-20	100	88
O=C(NCCCN1CCCCC1)c1ccc(-n2ccc3ccccc32)s1	110	-33	103	52
O/N=C/c1c(Cl)nc2sccn12	·	-9	100	·
COc1ccc(CNC(=O)c2cc3cccc(OC)c3oc2=O)cc1	105	-41	110	92
OC(CN1CCN(c2nc3ccc(Cl)cc3s2)CC1)Cn1ccc2ccccc21 (stereo unspecified)	109	10	110	90
O=C1/C(=C/c2cccs2)SC(=S)N1CCCN1CCOCC1	83	-79	109	83
N#Cc1ccc(OCc2cnc(Cl)s2)cc1	·	-2	105	·
CC(=O)N1CCc2cc(S(=O)(=O)CCC(=O)Nc3cccc(F)c3)ccc21	89	0	98	82
CCCCn1c(=S)[nH]c2c1c(=O)[nH]c(=O)n2C	81	·	99	84
COC(=O)c1ccc(CS(=O)(=O)c2ccc(Br)cc2)o1	98	-2	104	91
O=C(CC1Oc2ccccc2NC1=O)NCCCN1CCN(C2CCCCC2)CC1 (stereo unspecified)	102	-12	104	93
NC12CC3CC(C1)CC(CC(=O)O)(C3)C2	106	2	102	99
O=C(CCSc1nnnn1-c1ccccc1)N1CCOCC1	102	-15	100	94
CCOC(=O)Cc1csc(SCC(=O)N2c3ccccc3NC(=O)C2(C)C)n1	81	-14	·	89
CCN1C(=O)CC(NC2CCN(C(=O)c3ccc(F)cc3)CC2)C1=O (stereo unspecified)	103	-31	99	90
CCOC(=O)/C(C#N)=N\Nc1ccccc1OC	91	-18	115	105
Cc1nn(Cc2ccccc2)c(C)c1C(=O)NCCN1C(=O)S/C(=C\c2cccs2)C1=O	64	-18	·	91
NC(=O)C1CCN(C(=O)c2ccc3c(c2)N(CC(=O)N2CCCC2)C(=O)CO3)CC1	·	-9	108	·
O=C(CCCN1C(=O)c2ccccc2Sc2ncccc21)NCc1ccccc1	·	6	108	·
S=C(N=S(c1ccccc1)c1ccccc1)Nc1ccccc1	79	-1	·	91
CCOC(=O)c1ccccc1NC(=O)Cn1c(=O)n(Cc2nc(-c3ccccc3)no2)c(=O)c2ccccc21	95	·	106	92
COc1ccc(S(=O)(=O)N(CC(=O)NCCSc2ccccc2)c2ccc(C)cc2)cc1	102	-16	102	88
Cc1cccc(CN2CCC(CNC(=O)C3c4ccccc4C(=O)N4CCc5ccccc5C34)CC2)c1 (stereo unspecified)	·	0	103	·
Nc1c(-c2nc(-c3cccs3)no2)nnn1-c1cccc(Cl)c1	125	·	106	85
CCc1ccc(N2C(=O)CC(Sc3nnc(N)s3)C2=O)cc1 (stereo unspecified)	34	8	99	20
CC1(C)CC(=O)C=C(N2CCNCC2)C1	115	-3	107	89
CCOC(=O)c1[nH]c(=O)[nH]c1Cn1nc(C)cc1C	82	-4	·	104
CCOC(=O)c1cnc(C(C)(C)C)[nH]c1=O	110	-4	103	100
CCOc1cc(C#N)c(NC(=O)c2ccnn2C)cc1OCC	92	3	106	95
c1ccc(CSc2nncn2-c2ccccc2)cc1	110	-22	100	84
O=C(NCCCN1CCOCC1)C1CCN(C(=O)c2cnn(-c3ccccc3)c2-n2cccc2)CC1	91	-22	104	93
CC(C)c1ccc(NC(=O)COn2nnc3ccccc32)cc1	84	-26	·	74
O=CN(CN1C(=O)c2ccccc2S1(=O)=O)CN1C(=O)c2ccccc2S1(=O)=O	·	-6	103	·
COC(=O)/C=C1\SC(=O)NC1=O	94	-28	·	82
CCOc1ccc(NC(=O)CN2CCN(C3CCCCC3)C(=O)C2=O)cc1	89	·	107	90
COC(=O)c1ccccc1NC(=O)Cn1ncc2c(=O)oc3ccccc3c21	102	-5	108	88
CN(C)c1ccc(/C=C2\C(=O)NC(=O)N(C3CCCC3)C2=O)o1	68	·	-42*	80
N#Cc1c2n(c3c(=O)[nH]cnc13)CCCC2	88	-4	101	104
C/C(=N\NC(=O)C1CC1(C)c1ccccc1)c1ccco1 (stereo unspecified)	100	-2	105	94

More entries.
SMILES	Sa growth inh	HCMV UL50-53 inh	GIV-Gai inh	Sa growth inh second temp
O=C(Cn1c(=O)n(CCc2ccccc2)c(=O)c2ccccc21)Nc1ccc(Cl)cc1	96	4	106	90
O=C(O)Cc1ccc(Nc2nc3ccccc3n3nnnc23)cc1	91	-40	139	95
Cc1noc2ccccc12	84	9	·	91
Cc1cc(C)nc(NS(=O)(=O)c2ccc(NC(=O)c3sc4ccccc4c3Cl)cc2)n1	·	-20	101	·
Cc1cc(C)n(-c2nc3cc(Cl)ccc3nc2NCc2ccc3c(c2)OCO3)n1	112	7	108	107
O=C(O)C1CCN(c2ncnc3sccc23)CC1	105	-23	·	92
Cc1ccc(Cl)cc1N1CCN(C(=O)C2CCC(CNS(=O)(=O)c3cccs3)CC2)CC1 (stereo unspecified)	87	-21	103	92
CCN(C(=O)Cn1ncc(Cl)c(Cl)c1=O)c1ccccc1	92	-68	·	91
CCOc1ccc(-c2cc(NC(=O)Nc3ccccc3C(F)(F)F)c(C(=O)OC)s2)cc1	106	-9	106	90
CN(C(=O)CSc1nc2ccccc2n1Cc1ccccc1C#N)c1ccccc1	98	·	103	94
COc1ccc(CCNC(=O)c2ccc(CS(=O)(=O)Cc3cccc(C)c3)o2)cc1OC	144	·	100	82
CCC(=O)Nc1ccccc1-c1nnc(SC(C)C(=O)Nc2cccc(C)c2C)[nH]c1=O (stereo unspecified)	·	-27	94	·
CCOc1ccc(NC(=O)Cn2nc(-c3ccncc3)ccc2=O)cc1	106	·	103	90
CCOC(=O)c1ccccc1NC(=O)c1sc2ncn(Cc3cccc(F)c3)c(=O)c2c1C	110	·	102	88
CCOC(=O)Cc1csc(C)n1	80	-11	·	89
Cc1ccc(Nc2nc(CSc3nnnn3Cc3cccs3)cs2)cc1	131	9	·	92
CCN1CCSc2ccc(C(=O)NCCC(C)C)cc21	89	-5	101	97
CCn1nnc(-c2ccccc2N)n1	90	-16	99	82
C=CCSc1nnc(NC(=O)CN(C)S(=O)(=O)c2ccc(Cl)cc2)s1	96	-4	·	92
COC(OC)c1ccc(C#N)c(SCc2ccc(C)cc2)n1	114	-27	98	95
COc1ccc(C2CC(=O)C3=C(C2)NC(C)=C(C(=O)OC2CCCC2)C3c2cc(OC)ccc2OC)cc1 (stereo unspecified)	·	2	108	·
O=C([C@H](Cc1ccccc1)N1Cc2ccccc2C1=O)N1CCC(Cc2ccccc2)CC1	·	-15	103	·
Cc1ccc(S(=O)(=O)N2CCN(c3nc4ccccc4n4cccc34)CC2)cc1C	·	-32	103	·
Cc1ccc(C)c(NC(=O)c2cc(S(=O)(=O)N3CCN(c4cccc(Cl)c4)CC3)ccc2F)c1	94	·	103	93
COc1cc(OC)cc(C(=O)NC(C)(C)CO)c1	79	13	104	84
Cc1cc(C)c(C#N)c(SC2CCCCC2=O)n1 (stereo unspecified)	95	·	97	90
COc1ccccc1N1CCN(c2ccc(C(=O)N3CCc4ccccc43)nn2)CC1	·	-8	99	·
Cc1ccc(-n2nc(C)cc2NC(=O)c2ccco2)cc1	100	-38	·	66
Cn1c(=O)c(=O)n(C)c2cc3c(cc21)ncn3Cc1ccccc1	·	8	98	·
Cc1ccc(COC(=O)c2[nH]c3c(c2C)C(=O)CC(c2ccc(N(C)C)cc2)C3)cc1 (stereo unspecified)	109	2	106	103
CC(CC(=O)NCc1ccccc1)S(=O)(=O)c1ccc2c(c1)NC(=O)CS2 (stereo unspecified)	95	5	117	105
Cc1noc(-c2ccccc2OCC(=O)N(C)C)n1	·	-21	100	·
O=C(CCNS(=O)(=O)c1ccc2c(c1)CCN2C(=O)C1CC1)N1CCN(c2ccccc2F)CC1	95	·	99	81
CCn1ccc2cc(S(=O)(=O)N3CCCN(C(=O)Nc4ccc(C)c(Cl)c4)CC3)ccc21	·	-2	101	·
Cn1c(=O)oc2cc(S(=O)(=O)NCc3cccn3Cc3ccccc3F)ccc21	·	-31	108	·
N#C/C(=C\C=C\c1ccccc1)c1nc2ccccc2c(=O)[nH]1	91	·	130	91
CN(C)c1ccc(/C=C/CN2CCSCC2)cc1	91	-4	105	107
c1ccc2c(c1)c(NCc1ccc3c(c1)OCO3)nn1cnnc21	91	-31	104	87
CC(C)OC(=O)CSc1nc2c(c(-c3ccc(O)cc3)c1C#N)CCCC2	·	-6	100	·
Cc1ccccc1-c1noc(-c2nnn(-c3ccc(Cl)cc3)c2C)n1	·	-23	104	·
COc1cc(OC)c(NC(=O)Nc2cccc(OCc3cc(=O)n4ccccc4n3)c2)cc1Cl	93	·	99	78
COC(=O)c1ccc(-c2ccco2)n1Cc1cccc(C)c1	90	-9	110	79
O=C(CSc1nc(-c2ccc(F)cc2)[nH]c1-c1ccccc1)NCC1CCCO1 (stereo unspecified)	105	9&14	101&101	80
O=C(NC(Cc1ccccc1)C(=O)N1CCN(c2ncccn2)CC1)c1ccco1 (stereo unspecified)	80	-14	·	83
C(=N\OCc1nc2c3cnn(-c4ccccc4)c3ncn2n1)/c1ccccc1	115	7	·	106
COc1ccc(-n2cc(C(=O)OCc3ccc(F)c(F)c3)c3ccccc3c2=O)cc1	89	·	109	99
COC(=O)C1=C(N)OC2=C(C(=O)CCC2)C1c1cccnc1 (stereo unspecified)	85	-5	104	86
COc1ccc(-c2cc(C(N)=O)on2)c(OC)c1	91	-82	89	109
COc1ccc(-n2nc(C(=O)Nc3nc4ccc(OC)cc4s3)c(=O)n(C)c2=O)cc1	·	-32	102	·
CCCCc1ccc(C(=O)Nc2ccc(NC(=O)c3ccc(CCCC)cc3)c3c2C(=O)c2ccccc2C3=O)cc1	·	-8	103	·
O=C1NC(=Nc2ccc(F)cc2)CS1	73	-15	108	63

Single records, from the list above. Order of screens: Sa growth inh | HCMV UL50-53 inh | GIV-Gai inh | Sa growth inh second temp
COc1ccc(-n2nc(C(=O)Nc3nc4ccc(OC)cc4s3)c(=O)n(C)c2=O)cc1 is entered as · | -32 | 102 | ·
CCCCc1ccc(C(=O)Nc2ccc(NC(=O)c3ccc(CCCC)cc3)c3c2C(=O)c2ccccc2C3=O)cc1 is entered as · | -8 | 103 | ·
